ugtP null kill = kills S. aureus RN4220 lacking UgtP; AID 1259309; hit rate 0.54% among 330,000; S. aureus RN4220 ugtP deletion, OD600 growth, 16 h; some inactives read as strong as hits; growth inhibition, % (no concentration beside the values);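 active = z-score under -3 and OD600 up to 0.15 on both plates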;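 note: plate controls were untreated wells for no effect and antibiotic for full effect; wells of about 80 µL received 100 nL stock; the first replicate is given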
Autofluor counter = compound fluorescence in toxin protease inhibitor counterscreen; compound autofluorescence counterscreen, microsphere flow cytometry; active compounds read high; fluorescence intensity (concentration not given with the values); hit rate 3.1% among 360,000; AID 624483;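 active = at least 3 SD above the mean of all compounds, about 16000 in these data; inconclusive = too few beads counted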;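 note: 100 nL of 1 mM stock went into each well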
PrP 5UTR inh = inhibition of PrP 5' UTR reporter expression; cell-based PrP 5' UTR mRNA reporter, plate reader; inhibition, % (no concentration beside the values); hit rate 0.35% among 340,000; AID 488862;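 active = every replicate at 50% or more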;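 note: 0 = median of the neutral control wells; tested in H4 reporter cells; numbers are from one replicate; inactives centre near -14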
BJeLR viability = BJeLR cell viability loss. inhibition, % (concentration not given with the values). BJeLR (HRASV12) viability, CellTiter-Glo ATP luminescence, 48 h; reference of the scale not given here. hit rate 0.17% among 300,000;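 active = replicate mean above 50%; inconclusive = above 50% but judged a plate artefact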;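 note: 50 nL library stock added to about 25 µL; numbers are from one replicate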
Sa RN4220 lethal = kills Staphylococcus aureus RN4220; S. aureus RN4220 growth, OD600, 16 h; inhibition, % (test concentration not listed); hit rate 0.33% among 330,000; AID 1259311;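 active = z-score of -3 or lower and OD600 up to 0.18 on both plates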;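 note: plate controls were untreated cells for no effect and reference antibiotic for full effect; stock transfer was 100 nL into about 80 µL; one replicate is shown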
Mtb hypoxia inh = reduces hypoxia-regulated biosensor signal in M. tuberculosis | M. tuberculosis hypoxia-regulated fluorescent reporter, fluorescence | fluorescence inhibition, % (test concentration not listed) | hit rate 0.1% among 300,000 | AID 1159583;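 active = 35 to 45% if threefold the growth effect, above 45% if 1.5-fold the growth effect; inactive = the rest, general growth blockers included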;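 note: wells of about 50 µL received 100 nL stock; 0% = vehicle wells and 100% = reference inhibitor wells; whole bacteria with a GFP reporter of the hypoxia response; strong numbers were not always called active; many hits fall short of the cut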
Mtb hypoxia inh growth = recorded beside Mtb hypoxia inh, whose call it bears; growth inhibition, %; measured here: M. tuberculosis growth (absorbance);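 0% = vehicle and 100% = reference antibiotic; read after six days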
Starred values were filed as active, the others as inactive; ? = inconclusive; . = not tested or not shown.

smiles,ugtP null kill,Autofluor counter,PrP 5UTR inh,BJeLR viability,Sa RN4220 lethal,Mtb hypoxia inh,Mtb hypoxia inh growth
Cn1cnc([N+](=O)[O-])c1Nc1ccccc1O,2.4,4672,-13.3,-3.9,0.9,.,.
COc1ccc(Br)cc1/C=C\C(=O)NCc1cccnc1,-5.0,4562,-1.1,-6.7,0.7,-0.7,4.6
O=C(CCC(=O)Nc1ccccc1Cl)NN=Cc1ccccc1,2.1,.,.,.,3.0,10.5,7.6
O=C(NCCN1CCCCCC1)C1CCN(S(=O)(=O)N2CCOCC2)CC1,4.7,.,5.4,6.7,3.5,.,.
Cc1nn(-c2ccccc2)c(C)c1C=NNC(=O)c1ccc(F)cc1,3.8,.,.,.,-0.2,5.2,11.6
Cc1c(Br)c(C(N)=O)nn1C,0.2,9754,.,1.5,4.4,-0.1,-0.1
O=C(CN1CCN(Cc2ccc3c(c2)OCO3)CC1)Nc1ccc2c(c1)OCO2,1.8,4668,-17.2,7.3,0.0,.,.
O=C(OCc1ccccc1Cl)c1ccc(-n2cnnc2)cc1,7.3,15870,-16.0,1.9,8.3,8.5,10.8
COc1cc(C2NC(=O)NC(c3ccccc3)=C2C(C)=O)c(Br)c(Br)c1O (stereo unspecified),12.0,2951,-6.5,-8.4,6.5,7.7,-4.5
CC(C)C(=O)NN1c2ccccc2CCc2ccccc21,3.4,.,-1.5,-1.4,3.5,6.7,15.4
CCOC(=O)C1CCN(c2cc3c(cc2NC(=O)c2ccc(F)cc2)n(C)c(=O)n3C)CC1,-3.4,5915,0.4,-3.6,1.6,-1.0,3.4
COc1ccc(C(=O)OCC(=O)N(C)C2CCS(=O)(=O)C2)cc1Br (stereo unspecified),2.9,3850,-7.4,.,3.2,3.3,2.4
COc1ccc(/C=C/C(=O)NC(C)(C)C)cc1S(=O)(=O)N1CCOCC1,3.7,2399,3.5,0.9,2.4,14.0,13.4
c1ccc(-c2nnc(-c3ccccn3)nn2)nc1,0.0,4490,-24.8,-4.8,2.9,4.0,-5.4
CCN(CC)CCNCc1cc(Cl)ccc1OCc1ccccc1F,4.6,4016,0.8,2.3,12.2,15.4,15.0
Cc1ccc(S(=O)(=O)NC2CC2)cc1[N+](=O)[O-],11.3,3217,-9.0,0.1,4.5,-7.8,-4.5
COc1ccc(CNC(=O)c2cc(S(=O)(=O)N3CCCCC3)ccc2Cl)cc1OC,-0.9,3567,-13.2,.,-2.5,-5.8,1.5
S=C(NCc1ccncc1)Nc1ccc(Cl)cc1,2.7,2501,0.1,7.5,2.3,-3.8,7.4
COc1cc(C(=O)NC(=S)NNC(=O)[C@H]2C[C@@H]2c2ccccc2)cc(OC)c1OC,.,?,-13.4,12.7,.,.,.
CC(OC(=O)CNS(=O)(=O)/C=C/c1ccccc1)C(=O)Nc1ccc(S(=O)(=O)N2CCCC2)cc1 (stereo unspecified),-1.4,2823,-21.1,-4.0,6.5,2.4,8.8
CCOc1ccc(N2C(=O)CC(N3CCN(c4ccccc4OC)CC3)C2=O)cc1 (stereo unspecified),-0.7,3518,-12.2,-4.2,-3.5,0.5,8.0
Cc1cc2c(=O)n(Cc3ccco3)c(SCC(=O)NCc3ccco3)nc2s1,3.0,10325,-17.9,6.8,4.9,-7.2,-3.0
CC(Cc1ccc(Cl)cc1)N1CCC(n2nccc2NC(=O)C2CCCC2)CC1 (stereo unspecified),-1.9,8527,-11.4,2.4,-0.8,-7.5,4.4
CC1Cc2ccccc2N1C(=O)C1CCCN(S(=O)(=O)c2cccc3cccnc23)C1 (stereo unspecified),4.0,6429,-20.3,.,-0.2,.,.
Cc1nnc(SCC(=O)Nc2ncc(S(=O)(=O)c3ccc([N+](=O)[O-])cc3)s2)s1,-2.3,1977,0.9,-20.5,-0.2,-11.1,1.0
O=C(N/N=C/c1ccc2c(c1)OCO2)c1cccnc1,.,3947,-16.3,2.2,.,.,.
COc1ccc(C(=O)NC(C)CCCC(C)(C)O)cc1OC1CCN(C(C)=O)CC1 (stereo unspecified),1.6,4013,-8.4,4.0,-0.2,-12.3,2.5
NC(=O)NC(=O)COC(=O)c1ccc2c(c1)C(=O)N(Cc1ccccc1)C2=O,12.4,4511,-0.9,-5.0,4.3,6.9,9.2
COc1ccc2c(c1)C1=NN(/C(C)=C\C(C)=O)C(c3ccccc3)C1CC2 (stereo unspecified),-9.3,21972*,-54.5,-0.5,5.3,4.5,2.7
COc1ccc(C=NNc2ccc(C(=O)O)cc2)c(OC)c1OC,5.9,.,.,.,4.4,11.0,9.0

Of the compounds above, these contain fluorine:
smiles,ugtP null kill,Autofluor counter,PrP 5UTR inh,BJeLR viability,Sa RN4220 lethal,Mtb hypoxia inh,Mtb hypoxia inh growth
Cc1nn(-c2ccccc2)c(C)c1C=NNC(=O)c1ccc(F)cc1,3.8,.,.,.,-0.2,5.2,11.6
CCOC(=O)C1CCN(c2cc3c(cc2NC(=O)c2ccc(F)cc2)n(C)c(=O)n3C)CC1,-3.4,5915,0.4,-3.6,1.6,-1.0,3.4
CCN(CC)CCNCc1cc(Cl)ccc1OCc1ccccc1F,4.6,4016,0.8,2.3,12.2,15.4,15.0

(cont.)
smiles,ugtP null kill,Autofluor counter,PrP 5UTR inh,BJeLR viability,Sa RN4220 lethal,Mtb hypoxia inh,Mtb hypoxia inh growth
COc1ccc(-c2cnnn2-c2ccc(NC(=O)/C=C/c3ccc(OC)c(OC)c3)cc2)cc1,0.0,2381,-16.7,5.3,-5.4,6.6,6.2
COc1ccc(C2C=CCN(CC(C)(C)C)CC(=O)N2Cc2ccc(F)cc2)cc1 (stereo unspecified),-13.5,.,.,.,7.9,12.5,10.3
O=C(CSc1ccccc1)Nc1nc2ccccc2[nH]1,-3.4,2451,-25.3,-4.7,3.4,5.0,-0.9
COc1cccc(CNC(=O)C2Cc3cc(S(=O)(=O)N4CCCC4)ccc3N2C(C)=O)c1OC (stereo unspecified),12.5,4105,-7.2,17.8,6.1,9.0,2.4
COc1cc2c(cc1OC)C(c1ccccc1O)N(C1CC(=O)N(c3ccccc3)C1=O)CC2 (stereo unspecified),-5.5,.,-10.8,.,2.7,-1.9,8.6
COc1cccc(C2CC(c3cccs3)=NN2C(=O)CSc2nc3ccccc3o2)c1OC (stereo unspecified),7.0,2006,-26.6,-8.1,1.1,11.9,3.6
N#CCC(=O)N/N=C/c1ccc(OS(=O)(=O)c2ccccc2)cc1,.,9241,-21.5,8.8,.,.,.
O=C(NCCc1ccccc1)C(=O)NCC(c1ccco1)N1CCOCC1 (stereo unspecified),7.7,4529,-8.9,11.0,1.6,5.0,15.9
C=CCNC(=S)NN=C(C)c1ccc(OC)cc1,7.2,.,.,.,4.0,-4.5,-12.0
Clc1ccc(CNCc2cccs2)cc1Cl,1.6,2374,-21.2,-15.9,9.5,-0.2,6.2
O=C(NC1CCCC1)C1(c2ccccc2)CCN(S(=O)(=O)c2ccccc2)CC1,6.7,24081*,-9.3,12.5,6.8,5.5,1.7
O=C(NCC1CCCO1)c1ccc(NC(=O)c2cccc(Cl)c2)cc1 (stereo unspecified),-2.1,5209,-24.1,0.4,1.2,-1.9,3.1
Cc1cccn2cc(CNS(=O)(=O)c3ccc4ccccc4c3)nc12,5.3,?,-2.3,-2.0,2.1,13.3,5.8
CC(C(=O)NCCN1C(=O)S/C(=C\c2cccs2)C1=O)N1C(=O)c2ccccc2C1=O (stereo unspecified),2.0,2396,-14.8,-2.5,1.6,-1.4,-1.2
CC1Sc2ccc(S(=O)(=O)N3CCC(C(=O)Nc4cccc(Cl)c4)CC3)cc2NC1=O (stereo unspecified),-9.1,5690,-22.8,5.7,-10.8,6.7,10.8
COC(=O)c1[nH]c2ccc(Br)cc2c1NC(=O)CN1CCCCC1CCO (stereo unspecified),-9.0,4861,-4.8,3.9,-0.1,.,.
Cc1ccc(NC(=O)CN2CCC(C(=O)c3ccc(F)cc3)CC2)cc1,6.2,9465,-20.6,-9.1,-0.8,6.3,3.9
Cc1ccc(Nc2nc3ccccc3n3cnnc23)cc1Cl,2.7,2946,-0.1,-13.3,4.8,1.5,5.6
COC(=O)CCC(=O)OC1(C)C(=O)C2=CN(CC3CC3)C(c3ccc(OC)cc3)=CC2=C(Br)C1=O (stereo unspecified),-10.7,2794,-6.2,-0.6,3.7,-2.4,13.0
CCNS(=O)(=O)c1ccc(NS(C)(=O)=O)cc1,10.7,7693,-9.6,-16.9,2.5,1.8,3.2
O=C(c1ccc(F)cc1)N1CCC(C(=O)N(Cc2ccccc2)c2ccccc2)CC1,6.4,4971,-12.6,.,-0.2,3.4,6.5
CC(=O)N1CCCc2cc(S(=O)(=O)N(C)Cc3ccccc3)ccc21,0.6,4649,-46.0,2.1,4.3,.,.
Oc1cccc2ccc(/C=C/c3ccccc3Br)nc12,91.9*,3385,-22.9,37.7,89.9*,4.0,7.5
N#Cc1cnn(-c2ccccc2)c1NC(=O)CN1CCN(c2ccccc2)CC1,0.9,5363,.,-12.0,4.9,12.2,8.0
C=CCC1C=CC(ON=CC(NS(=O)(=O)c2ccc(C)cc2)C(C)C=CCC(=O)OC)C(CO)O1 (stereo unspecified),0.1,.,.,.,4.2,7.1,-0.6
COc1cccc(/C=N/n2c(CO)nc3ccccc32)c1OC,.,21345*,-10.1,-1.6,.,.,.
CCC(O)c1c(-c2ccccc2)nn(C)c1Cl (stereo unspecified),-1.2,2534,-10.7,-3.5,5.9,8.9,0.0
O=c1[nH]c(-c2ccc3c(c2)OCO3)nc2c1sc(=S)n2-c1ccccc1,1.9,2253,-16.2,-4.2,-5.2,4.3,5.9
NC(=S)Nc1cccc2cc3ccccc3cc12,-11.7,?,-31.4,3.9,19.5,7.7,10.4
OC(COCc1ccccc1)Cn1cnc2ccccc21 (stereo unspecified),13.3,16259*,-12.4,0.9,9.4,1.6,-0.2
CCNC(=O)COc1ccc(S(=O)(=O)Nc2ccccc2)cc1,-0.4,10629,-23.1,-17.4,2.0,3.3,7.3
Cc1cccc(COc2ccccc2/C=N/Nc2ccc([N+](=O)[O-])cc2)c1,.,12938,1.4,-3.6,.,.,.
CCc1c(C(=O)Nc2ccc(OC)cc2)[nH]c(C)c1C(C)=O,-9.1,4107,-5.8,2.2,0.0,1.8,12.6
O=C(Nc1ccc2c(c1)OCCO2)c1cccc(Cl)c1,3.8,4120,-76.3,-11.4,2.7,9.9,2.7
O=C(NCCN1CCOCC1)c1cc(=O)[nH]c2ccc(Br)cc12,4.3,2634,-6.9,2.3,-1.1,9.6,10.4
O=C(NCc1ccc(F)cc1)C1CCCN1S(=O)(=O)c1cccc2nsnc12 (stereo unspecified),1.9,5182,-14.3,-2.8,1.9,5.8,13.6

Compound activity deposited in PubChem by several laboratories.
